High-throughput results (PubChem)
HPGD inh – inhibitors of human 15-hydroxyprostaglandin dehydrogenase (HPGD); P15428; purified HPGD, NADH fluorescence kinetic, PGE2 substrate; Potency, µM, for inactives: at the top dose activity change, negative = inhibition, actives largely listed as inhibitors; hit rate 4.3% among 150,000; AID 894; active = well fitted inhibition curve with a large enough effect (not every such curve was filed as active); inconclusive = small, poorly fitted or top-dose-only effect, or another doubt; inactive = no such curve, though single readings can be large or run the other way;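 note: top concentration of the series not given in the record; plate controls included wells without enzyme; inactives centre near -10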
Target sequence (P15428 whole entry, looked up): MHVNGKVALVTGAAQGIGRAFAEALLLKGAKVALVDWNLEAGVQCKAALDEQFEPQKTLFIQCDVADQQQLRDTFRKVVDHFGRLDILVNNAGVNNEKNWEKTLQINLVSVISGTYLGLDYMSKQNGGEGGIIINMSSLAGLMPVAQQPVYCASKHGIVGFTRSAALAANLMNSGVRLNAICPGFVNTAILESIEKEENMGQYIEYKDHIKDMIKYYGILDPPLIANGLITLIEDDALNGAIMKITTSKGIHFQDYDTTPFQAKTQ
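20 nM HPGD preincubated 15 min at room temperature with compound in 50 mM Tris-HCl pH 8, 0.01% Tween 20. Started with 1 mM NAD+ and 30 uM prostaglandin E2; NADH fluorescence (360/450 nm) read 5 times over 30-s intervals, last minus first.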
The depositor's hits bear a star; u = inconclusive; & = joins results of further samples; [ ] = remark or other dose. % is set by controls: 0 for no effect and ±100 for the full control effect; potency is the fitted concentration of half-maximal effect. An excerpt (hit frequency here may not be typical).

The opening six records as a preview:
SMILES	HPGD inh
CCc1ccc(NC(=O)c2sccc2-n2cccc2)cc1	-20.1%
Cc1nc2cc(C(=O)O)ccc2n1-c1ccc(F)cc1F	-2.2%
CC(/C=C/c1ccco1)=N/NC(=O)Cc1cccs1	-20.7%
CCC(CO)NC(=O)c1ccc(-c2nn(C)c(=O)c3ccccc23)cc1 (configuration not stated)	31.6µM*
COc1ccccc1NC(=O)Nc1ccnn1Cc1cccs1	-7.9%
Cc1ccc(C2CC(c3ccccc3Cl)n3nc(N)nc3N2)cc1 (configuration not stated)	-11.9%

The listing, previewed entries included:
SMILES	HPGD inh
CCc1ccc(NC(=O)c2sccc2-n2cccc2)cc1	-20.1%
Cc1nc2cc(C(=O)O)ccc2n1-c1ccc(F)cc1F	-2.2%
CC(/C=C/c1ccco1)=N/NC(=O)Cc1cccs1	-20.7%
CCC(CO)NC(=O)c1ccc(-c2nn(C)c(=O)c3ccccc23)cc1 (configuration not stated)	31.6µM*
COc1ccccc1NC(=O)Nc1ccnn1Cc1cccs1	-7.9%
Cc1ccc(C2CC(c3ccccc3Cl)n3nc(N)nc3N2)cc1 (configuration not stated)	-11.9%
CCOC(=O)C(CC)/C(C)=N/NC(=O)c1ccccc1[N+](=O)[O-] (configuration not stated)	-11.3%
Cc1oc(-c2ccc(Cl)cc2)nc1CN1CCC(C(=O)N2CCc3ccccc3C2)CC1	u
Cc1cc(C)c(C(=O)COC(=O)c2cc([N+](=O)[O-])ccc2NCCO)cc1C	-9.5%
CCn1cc(C(=O)N2CCN(Cc3ccc4c(c3)OCO4)CC2)c2cc(OC)c(OC)cc2c1=O	-19.3%
CCN1CCN(C(=O)c2ccc(Cn3c(=O)[nH]c4cc(OC)c(OC)cc4c3=O)cc2)CC1	u
CC(=O)Nc1ccc(NC(=O)CSc2nccn2Cc2ccccc2)cc1	-9.3%
Cc1cccn2c(=O)c3cc(C(N)=S)c(=N)n(CCCOC(C)C)c3nc12	u
COc1ncnc2c1N[C@@](C)(O)c1c(F)c(F)c(F)c(F)c1S2	-25.3%
CSc1ccccc1NC(=O)c1cccs1	-13.7%
Cc1nc2c(=O)n(C)c(=O)n(C)c2nc1Cl	u
COC(=O)C(CC(C)C)NC(=O)c1ccc([N+](=O)[O-])c(C)c1 (configuration not stated)	-7.2%
COc1ccc(-c2ccc(/C=N/N3C(=O)C4C5C=CC(C6CC56)C4C3=O)o2)c([N+](=O)[O-])c1 (configuration not stated)	25.1µM*
CCOc1ccc2nc(NS(=O)(=O)Cc3ccccc3)sc2c1	u
Cc1cc(C)cc(NC(=O)Cn2c(=O)oc3cc(S(=O)(=O)N4CC(C)CC(C)C4)ccc32)c1 (configuration not stated)	-11.7%
Cc1c(C(=O)O)oc2c3c(ccc12)OCCO3	u
O=S(=O)(N/N=C/c1ccc2c(c1)OCCO2)c1ccc(Cl)cc1	-15.8%
CCCS(=O)(=O)N1CCN(C(=O)COc2ccc(-c3ccccc3)cc2)CC1	-10.9%
Cc1ccc(NS(=O)(=O)c2ccc(NS(=O)(=O)c3cccs3)cc2)cc1	-0.3%
O=C(Cc1ccccc1)Nc1ccc(NC(=O)c2ccco2)nc1	-17.1%
CC1(C)c2ssc(=S)c2-c2ccccc2N1C(=O)c1ccco1	-9.2%
O=C(CSc1nc2ccccc2[nH]1)Nc1ccc(F)c(F)c1	-9.9%
COc1cc(C(C#N)N2CCCCC2)ccc1O (configuration not stated)	-14.2%
O=C(CN1C(=O)NC2NC(=O)NC21)NN=C1CCCC1 (configuration not stated)	-8.8%
Cc1ccccc1OCC(=O)Nc1ccccc1CO	-8.0%
CC(C)N(CCNC(=O)c1ccc(-n2c(=O)c(=O)[nH]c3ccccc32)cc1)C(C)C	-7.2%
Cc1ccc(S(=O)(=O)/N=C(\N)Nc2nc(C)c3ccccc3n2)cc1	u
CCCCc1nnc(NC(=O)CSc2nc(=O)cc(N)n2-c2cccc(C)c2)s1	-9.7%
O=C(NCc1ccccn1)[C@@H]1C[C@H]1[C@@H](NP(=O)(c1ccccc1)c1ccccc1)c1ccccc1	-8.3%&-6.5%
COc1ccc(N2CCN(C(c3cc4cc(C)ccc4[nH]c3=O)c3nnnn3Cc3ccccc3)CC2)cc1 (configuration not stated)	-20.4%
Cc1cc2cc(CN(C(=O)C3CC3)C3CCCC3)c3nnnn3c2cc1C	-17.6%
O=C(O)c1ccc(OC(F)(F)C(F)C(F)(F)F)cc1 (configuration not stated)	-1.7%
N#Cc1c2c(c(N3CCN(c4ccccn4)CC3)n3c1nc1ccccc13)CCC2	-10.4%
O=[N+]([O-])c1ccc(Sc2nnnn2-c2ccccc2)c(Cl)c1	-11.9%
CCCn1nc(C(=O)Nc2nc3ccccc3[nH]2)c2ccccc2c1=O	-0.7%
O=C(NCCCNCc1ccccc1)c1ccncc1	1.8%
COC(=O)c1ccc(C(/C=C/[C@@H](C)C(=O)N(C)C)NC(=O)OCc2ccccc2)cc1 (some centres not stated)	-13.0%
CCc1nc(Nc2ccncc2)c2oc3ccccc3c2n1	-27.2%
COCCN(C(=O)Nc1ccccc1)c1ccccc1C	-7.2%
Cc1cccc(N(C)c2cc(C)nc3nc(C)nn23)c1	-0.9%
Cn1cccc1Cc1nnc(SCC(=O)N2CCCCCC2)n1-c1ccc(F)cc1	-24.4%
O=S(=O)(NC1CCCCC1Nc1ccccc1)c1ccccc1 (configuration not stated)	2.5%
Cc1cc(C)cc(NC(=O)CSc2nnc(CN3CCOCC3)n2C)c1	-11.0%
Cc1ccccc1NC(=O)c1ccc(Cl)c(NC(=O)c2ccncc2)c1	-4.9%
CCOC(=O)c1[nH]c2ccc(Br)cc2c1NC(=O)CCN1CCCC(C)C1 (configuration not stated)	-16.5%
CCc1ccc2[nH]c(=O)c(CN(CCN3CCOCC3)C(=O)Nc3ccccc3F)cc2c1	-5.3%
CCN(CC(=O)NC(C)C)C(=O)C(CCSC)NC(=O)c1cccc(C)c1 (configuration not stated)	-6.3%
CCCC(=O)C1=C(O)C(C(=O)OC)C(C)(C)CC1=Nc1cccc2ccccc12 (configuration not stated)	-21.4%
C[N+](C)(C)CC(O)CC(=O)O (configuration not stated)	-2.5%
CC(=O)Nc1sc2c(c1C#N)CC(C)(C)NC2(C)C	1.0%
CCCc1cc(=O)[nH]c(SCC(=O)N(CC(C)C)C2CCS(=O)(=O)C2)n1 (configuration not stated)	-11.3%
Cc1cccc(N2CCN(C(=O)Cc3ccc(Br)cc3)CC2)c1C	-3.8%
CCn1c(=O)c(-[n+]2ccccc2)c(O)c2ccccc21	-7.2%
CCC(=O)NC(Cc1ccccc1)c1ccc2c(c1)OCCCO2 (configuration not stated)	0.4%
O=c1[nH]c2cc3c(cc2cc1CN(CCc1ccccc1)Cc1nnnn1CC1CCCO1)OCO3 (configuration not stated)	-17.1%

Random excerpt: seven entries already listed
SMILES	HPGD inh
C[N+](C)(C)CC(O)CC(=O)O (configuration not stated)	-2.5%
CCN(CC(=O)NC(C)C)C(=O)C(CCSC)NC(=O)c1cccc(C)c1 (configuration not stated)	-6.3%
CCCc1cc(=O)[nH]c(SCC(=O)N(CC(C)C)C2CCS(=O)(=O)C2)n1 (configuration not stated)	-11.3%
Cn1cccc1Cc1nnc(SCC(=O)N2CCCCCC2)n1-c1ccc(F)cc1	-24.4%
CCc1ccc2[nH]c(=O)c(CN(CCN3CCOCC3)C(=O)Nc3ccccc3F)cc2c1	-5.3%
O=c1[nH]c2cc3c(cc2cc1CN(CCc1ccccc1)Cc1nnnn1CC1CCCO1)OCO3 (configuration not stated)	-17.1%
Cc1cccc(N2CCN(C(=O)Cc3ccc(Br)cc3)CC2)c1C	-3.8%

(listing goes on)
SMILES	HPGD inh
O=C(c1ccc(COc2c(F)c(F)c(F)c(F)c2F)o1)N1CCN(Cc2ccc3c(c2)OCO3)CC1	-19.9%
CN(Cc1ccccc1)C(=O)c1cccc(NC(=O)c2ccco2)c1	-12.9%
CCC(C)c1ccccc1OCCCCN1CCCC1 (configuration not stated)	0.8%
CCn1c(COc2ccc(C)cc2)nnc1SCc1nc2ccccc2[nH]1	-8.1%
O=C(CSc1nnc2ccccn12)c1ccccc1	78.8%[activator]
O=C(COC(=O)COc1ccccc1Cc1ccccc1)Nc1cccnc1Cl	-13.7%
Cc1ccc(C)c(NC(=S)c2nc3ccccc3s2)c1	u
Cc1cc(=O)n(C(NC(=O)c2ccccc2)C(=O)c2ccccc2)cn1 (configuration not stated)	-2.4%
N#Cc1c(-c2ccccc2)nc(N2CCCCCC2)[nH]c1=O	-13.8%
COc1ccc(NC(=O)c2c(C(F)(F)F)nn(C)c2SCc2ccccc2Cl)cc1	-2.6%
O=C(NCCOc1ccccc1)c1n[nH]c(=O)c2ccccc12	-2.5%
c1ccc(-c2nnc(CSc3nnc(-c4ccncc4)n3Cc3ccco3)o2)cc1	20µM*
O=C(N=Nc1c(O)n(Cc2ccccc2)c2ccccc12)c1cc2ccccc2cc1O	-17.5%
CCN(CC)CCN(Cc1cc2cc(C)ccc2[nH]c1=O)C(=S)NCc1ccco1	-22.0%
O=C(/C=C/c1cccs1)Nc1ccc(Br)cn1	-9.5%
O=C(CSc1nnnn1C1CC2CCC1C2)Nc1ccnc2ccccc12 (configuration not stated)	u
Cc1ccc(NC(=O)CSc2nnc(-c3ccncc3)n2N)cc1C	-11.2%
COc1ccc(C(=O)N2CCC(C(=O)Nc3ccc(OC)c(OC)c3)CC2)cc1	-27.9%
COc1ccc(Cn2nnnc2C(c2cc3cc(C)cc(C)c3[nH]c2=O)N2CCOCC2)cc1 (configuration not stated)	u
CC(C)S	-3.1%
O=C(/C=C/c1ccncc1)c1ccc(NC(=O)c2ccccc2F)cc1	25.1µM*
CCOc1ccc(N(CC)C(=O)CCNC(=O)Cn2ccc3ccccc3c2=O)cc1	-11.4%
COc1ccc(C2NC(=O)C(C)S2)cc1 (configuration not stated)	-5.5%
Cc1cc(-n2c(C)cc(C(=O)CSc3nc4ccccc4c(=O)n3Cc3ccco3)c2C)no1	-2.7%
CCOc1ccccc1NC(=O)CCC(=O)Nc1ccc2nc(N3CCN(C)CC3)cc(C)c2c1	u
Cc1ccc(CNc2ccc3c(c2)ncn3C)cc1	-27.1%
CC(=O)NCCOc1c(C)cc(S(N)(=O)=O)cc1C	-13.1%
NCCc1nnc(SCc2ccccc2)o1	-1.9%
COc1ccccc1N1CCN(C(=O)c2cc(-c3ccc(Br)cc3)on2)CC1	-29.1%
O=C(Nc1cc(S(=O)(=O)N2CCOCC2)ccc1O)c1ccco1	u
Cc1ccc(NC(=O)c2cccc(N(C)C)c2)cc1NC(=O)c1ccc(O)cc1	u
CCCn1c(N)c(C(=O)CSc2nnc(Cc3ccccc3)o2)c(=O)n(C)c1=O	-9.8%
O=C(c1cnccn1)N1CCN(c2ccccc2)CC1	-4.8%
CCOc1ccc(N(CC(=O)OC)S(=O)(=O)c2c(C)noc2C)cc1	-9.6%
O=c1[nH]c(CSc2ncc(-c3ccc(F)cc3)n2Cc2ccco2)nc2ccccc12	-20.2%
CC(=O)OC(C)(C)C#CCN1CCCC1	-2.0%
COc1cccc([C@@H]2Oc3ccc(Br)cc3C(=O)[C@H]2OC(=O)Nc2ccc(OC(F)F)cc2)c1	-16.8%
O=C(N/N=C/c1ccc2c(c1)OCO2)C1COc2ccccc2O1 (configuration not stated)	-18.0%
CCOc1ccc(C(=O)NCC(=O)OCc2cc(C(C)=O)ccc2OC)cc1	-6.2%
COc1ccc(C(=O)Nc2nc(C)c(C)s2)cc1OC	-12.0%
CCc1ncc(CO)n1Cc1cccc2ccccc12	-2.3%
Cc1ccc(C(=O)OCC(=O)c2c[nH]c3ccccc23)cc1	-5.9%
COc1cc(NS(C)(=O)=O)ccc1Cc1c2ccccc2nc2ccccc12	-19.9%
CCOC(=O)C(CCOc1cccc(CC)c1)C(=O)OCC	-11.4%
Cc1ccc2cc3cc(C(=O)N4CCN(Cc5ccccc5)CC4)sc3nc2c1	-6.6%
CC1CCC2C(=O)N(c3ccc(S(=O)(=O)c4ccccc4)cc3)C(=O)C2C1 (configuration not stated)	-4.9%
CCOC(=O)c1c(N)sc2c1CCC1C(=O)N(C3CCCCC3)C(=O)C21 (configuration not stated)	u
Cc1ccsc1/C=N/n1c(COc2ccccc2)n[nH]c1=S	14.1µM*
C=CCn1c(SCC(=O)c2ccccc2)nnc1-c1cc2ccccc2o1	14.1µM*
CCCCCCCCOC(=O)c1ccc(N)cc1	-10.3%
Cc1cccc(NC(=S)NC(=O)/C=C/c2ccco2)n1	-23.9%
O=C(Nc1nccs1)C1C2/C=C\CCCCC21 (configuration not stated)	-20.5%
CCC(=O)Nc1ccc2c(c1)ncn2-c1ccc(OC)cc1	u
O=C(NCc1cccs1)c1cnn2cccnc12	u
COc1ccc(C(=O)Nn2c(C)nnc2-n2nc(C)cc2C)cc1OC	0.9%
OCC1(CO)COC2(CCCC2)N1	-8.0%
Nc1sc2c(c1C(=O)c1ccccc1)CCCC2	u
O=C(NCCNc1ccc([N+](=O)[O-])cc1)c1cccc(Br)c1	-8.9%
O=C(Oc1c(Cl)cc(Cl)c2ccccc12)N1CCCC1	-9.6%
O=C(NCCc1cccc(F)c1)[C@@H]1CSC2c3ccccc3C(=O)N21 (some centres not stated)	-3.4%

An excerpt from above in order of the HPGD inh value, descending:
molecule,HPGD inh
O=C(NCCc1cccc(F)c1)[C@@H]1CSC2c3ccccc3C(=O)N21 (some centres not stated),-3.4%
O=C(Oc1c(Cl)cc(Cl)c2ccccc12)N1CCCC1,-9.6%
Cc1cccc(NC(=S)NC(=O)/C=C/c2ccco2)n1,-23.9%

Following part.
SMILES	HPGD inh
CCCc1nc2c(=O)n(C)c(=O)[nH]c2n1CCC	-9.4%
OC1(c2cccc(C(F)(F)F)c2)CCN(Cc2nnnn2CCc2ccccc2)CC1	-7.0%
CS(=O)(=O)N(CC(=O)N1CCCCC1)C1CCCCC1	-1.8%
COc1ccc(CCNC(=O)CSc2ccccc2)cc1OC	-12.1%
CCCCCCOC(=O)C(C#N)c1nc2ccccc2nc1N1CCCCC1 (configuration not stated)	-21.3%
Cc1cc(C)nc(NC(=O)c2cc(-c3ccc(C)s3)nc3ccccc23)c1	u
